FGF22 binding: binders of human FGF22 protein, primary screen, FGF22 synaptogenesis inhibitor project, biophysical, thermal shift, single point | Fibroblast growth factor 22 (Homo sapiens), Q9HCT0 | recombinant FGF22 thermal shift, SYPRO orange fluorescence; percent of sucrose octasulfate shift, DMSO zero | calls only at 9.99 µM | hit rate 1.5% among 340,000 | AID 651658, 2012;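 active = melting point raised past a set limit in the mean and every replicate; three in four hits are not shown here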
HNF4A DNA FP: change in binding of human HNF4A to DNA, primary screen, biochemical, fluorescence polarization, FITC-DNA; Hepatocyte nuclear factor 4-alpha (Homo sapiens), P41235; 1 h; activity change, % at 10 µM; hit rate 0.3% among 360,000; in the data active = activity change above about 30%, passing the limit was not always enough;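 note: controls were the assay level and a saturating level of protein; the project sought stronger binding though the title names inhibitors; some compounds called inactive have numbers as strong as hits; positive values seem to mean higher polarization but the record does not say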
Beta2AR agonist: beta2AR agonists driving receptor internalization, primary screen, cell-based, FAP fluorogen, flow cytometry | hit rate 0.43% among 340,000 | Am2.2-beta2AR cells; reference of the scale not given here | AID 504454, 2011 | Beta-2 adrenergic receptor (Homo sapiens), P07550 | response, % (test concentration not listed);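 active = response above a set limit, near 3 SD of response in nonfluorescent compounds, cut at about 42% in these data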;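 note: stock transfer was 100 nL into about 11 µL; a reference agonist was the positive control; negative values mostly stem from fluorescent compounds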
ALR H2O2 inh: inhibitors of human ALR sulfhydryl oxidase, primary screen, biochemical, H2O2 detection, HRP-luminol luminescence, single point | FAD-linked sulfhydryl oxidase ALR (Homo sapiens), P55789 | purified ALR, DTT oxidation | inhibition, % (no concentration beside the values) | hit rate 3.8% among 290,000 | AID 485317, 2010;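 active = mean and each replicate at 75% or more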;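 note: stock transfer was 7.5 nL into about 7.5 µL; 0% = neutral wells and 100% = wells with inactivated enzyme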
E coli growth: E. coli growth inhibition, primary screen, OD600; hit rate 0.21% among 330,000; OD600 absorbance (no concentration beside the values); Escherichia coli growth, 23 h; hits give low values; AID 1053175, 2014;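 active = OD600 absorbance below the run mean of sample wells minus 3.6 SD, in any replicate, cut at about 0.56 in these data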;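 note: stock transfer was 300 nL into about 60 µL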
LANA-H2B inh: blockers of LANA interaction with H2A/H2B – biochemical, FP readout, HTS, primary screen. Protein LANA1 (Human herpesvirus 8 type P (isolate GK18)), Q9QR71. cell-free LANA-H2A/H2B peptide, fluorescence polarization. inhibition, % (no concentration beside the values). hit rate 0.6% among 320,000. AID 2629, 2010; in the data active = inhibition mostly above about 10%, no sharp cut-off; inactive = mostly below about 6.7%;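 note: stock transfer was 7.5 nL into about 10 µL; 0% = median of vehicle wells and 100% = median of positive control wells; one replicate is shown; the record names a cut of 25% in any replicate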
Target sequence (Q9QR71 whole entry, looked up): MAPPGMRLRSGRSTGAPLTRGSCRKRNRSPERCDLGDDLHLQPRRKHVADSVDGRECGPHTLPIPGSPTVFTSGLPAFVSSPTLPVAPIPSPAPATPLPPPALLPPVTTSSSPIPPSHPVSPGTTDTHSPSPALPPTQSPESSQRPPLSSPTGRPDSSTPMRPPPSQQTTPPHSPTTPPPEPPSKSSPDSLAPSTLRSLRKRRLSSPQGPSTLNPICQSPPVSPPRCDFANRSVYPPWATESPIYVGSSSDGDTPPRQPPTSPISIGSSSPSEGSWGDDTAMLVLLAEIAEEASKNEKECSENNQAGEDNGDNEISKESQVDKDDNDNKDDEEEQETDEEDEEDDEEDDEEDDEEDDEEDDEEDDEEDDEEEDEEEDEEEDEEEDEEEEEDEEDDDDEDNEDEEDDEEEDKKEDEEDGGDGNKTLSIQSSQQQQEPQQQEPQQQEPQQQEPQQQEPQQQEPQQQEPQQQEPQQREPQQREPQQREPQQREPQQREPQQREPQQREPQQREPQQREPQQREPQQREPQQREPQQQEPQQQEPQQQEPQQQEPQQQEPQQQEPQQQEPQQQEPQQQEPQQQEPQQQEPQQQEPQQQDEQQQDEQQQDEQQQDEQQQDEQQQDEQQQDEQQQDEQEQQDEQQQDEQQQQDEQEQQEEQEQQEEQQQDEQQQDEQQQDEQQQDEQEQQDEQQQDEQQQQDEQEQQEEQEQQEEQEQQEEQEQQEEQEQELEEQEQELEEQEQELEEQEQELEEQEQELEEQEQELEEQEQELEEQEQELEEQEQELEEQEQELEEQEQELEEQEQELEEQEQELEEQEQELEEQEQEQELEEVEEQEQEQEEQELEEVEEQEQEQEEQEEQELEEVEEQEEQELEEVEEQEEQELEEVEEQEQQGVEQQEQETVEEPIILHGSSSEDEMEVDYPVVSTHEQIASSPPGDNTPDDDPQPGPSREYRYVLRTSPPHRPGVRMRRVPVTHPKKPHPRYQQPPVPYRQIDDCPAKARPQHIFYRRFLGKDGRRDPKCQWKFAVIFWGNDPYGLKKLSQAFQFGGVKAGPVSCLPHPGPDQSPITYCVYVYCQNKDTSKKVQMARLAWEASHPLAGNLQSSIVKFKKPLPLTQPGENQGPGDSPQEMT
UCH37 DUB inh: inhibitors of human UCH37 deubiquitinase, primary screen, biochemical, Ub-AMC cleavage, fluorescence; Ubiquitin carboxyl-terminal hydrolase isozyme L5 (Homo sapiens), Q9Y5K5; purified proteasome/UCH37; inhibition, % (concentration not given with the values); hit rate 0.33% among 330,000;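 active = mean of two replicates above 20%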;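 note: 0% = compound-free wells with enzyme and 100% = wells lacking proteasome; stock transfer was 100 nL into about 20 µL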
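System: Proteasome-associated human UCH37 deubiquitinase; Input: 0.15 nM proteasome in added enzyme buffer; Also added: Ub-AMC substrate from 1 µM stock; Incubation: 30 min compound-proteasome preincubation then 25 min substrate reaction, room temperature; Detection: fluorescence, ex 355 nm, em 460 nm; Read-out: % inhibition of Ub-AMC cleavage fluorescence; Benchmarks: no-proteasome and no-compound wells.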
* = called active by the depositor; i = inactive; · = not tested or not shown. These rows are one share of the data, so the mix of outcomes need not match the whole.

mol	FGF22 binding	HNF4A DNA FP	Beta2AR agonist	ALR H2O2 inh	E coli growth	LANA-H2B inh	UCH37 DUB inh
COc1cc2nc(/C=C/c3ccc(N(C)C)cc3)sc2cc1SC	i	131.9	-266.8	64.3	0.738	7.1	-11.6
COc1ccc(Oc2cc(C)c3ccccc3n2)cc1	·	-1.4	-10.0	-6.7	0.677	0.0	·
Cc1ccnc(N2C(=O)c3ccccc3C2Nc2ccc3c(c2)OCCO3)c1 (stereo unspecified)	i	0.3	-6.0	23.9	0.75	-3.0	2.1
Cc1ccccc1NC(=O)Cn1nc(C)c2ccccc2c1=O	i	-0.8	-2.6	2.4	0.646	-2.9	3.0
CSc1nnc(-c2ccccc2)o1	·	-1.9	-9.4	-13.2	0.654	9.3	0.9
Cc1cccc(C)c1NC(=O)C1=C(O)c2ccccc2N(C)S1(=O)=O	·	2.9	13.8	5.1	0.72	-0.2	4.7
CCCC(c1nnnn1Cc1ccc(OC)cc1)N1CCN(c2ccccc2OC)CC1 (stereo unspecified)	·	1.4	-1.8	7.1	0.734	0.5	2.3
COc1ccc(CCNS(=O)(=O)c2ccc3c(c2)CC(C)N3C(C)=O)cc1OC (stereo unspecified)	·	-2.8	0.3	-6.6	0.757	-0.7	0.5
CC(=O)c1ccc(NC(=S)N2CCCCCC2)cc1	i	-39.9	-1.9	-5.8	0.618	0.2	-0.8
O=C(Nc1nc2c(s1)CCCC2)c1nn(Cc2ccccc2)c(=O)c2ccccc12	i	-1.5	-5.2	4.9	·	0.1	·
O=C1CC(N2CCC(c3nc4ccccc4o3)CC2)C(=O)N1Cc1cccs1 (stereo unspecified)	·	1.0	32.8	-3.6	0.734	-3.1	5.4
Cc1ccccc1C(=O)NC(C)C(c1cccs1)N1CCOCC1 (stereo unspecified)	i	-1.0	17.4	·	0.765	1.3	3.7
Cc1ccc(N(C(=O)C(F)(F)F)C(C(=O)NC2CCCCC2)c2ccncc2)cc1C (stereo unspecified)	i	-1.0	8.7	-1.5	0.723	-0.7	-0.6
CCOc1ccccc1-c1nc2c(C(C)(C)C)nn(C)c2c(=O)[nH]1	·	·	·	-4.9	0.722	3.8	-3.1
O=C1OC(Cc2ccccc2)C(c2ccccc2)C1=O (stereo unspecified)	i	-0.1	2.6	·	0.668	·	3.3
O=C(Nc1ccccc1N1CCOCC1)c1ccc2nc[nH]c2c1	i	-0.6	-10.9	·	0.715	·	0.1
COc1cc(C2CC(=O)C=C(O)C2)cc(OC)c1OC (stereo unspecified)	·	5.4	1.3	-13.8	0.708	0.5	0.0
Cc1cccc(CCN(CC(=O)NCc2ccc(F)cc2)C(=O)c2csnn2)c1	i	-2.0	8.7	-1.5	0.628	-3.5	3.4
CN(CC(=O)NNC(=O)CNC(=O)c1cccs1)S(=O)(=O)c1ccc(Cl)cc1	i	3.1	-0.5	0.4	0.665	-2.1	3.6
O=C(CN1CCOCC1)NN=C1CCCCCCCCCCC1	i	4.8	4.8	·	0.692	1.3	1.7
CCOC(=O)C1C(=O)NC(c2ccccc2)=NC1c1ccc(O)c(OC)c1 (stereo unspecified)	i	-1.8	-9.7	9.5	0.666	-2.7	4.7
O=C(c1cc(-c2cccnc2)nc2ccc(Cl)cc12)N1CCN(S(=O)(=O)c2cccs2)CC1	i	2.4	16.2	-1.3	0.725	-6.0	2.0
CCC(C(=O)NC1CCCC1)N(C(=O)c1snc(C(N)=O)c1N)c1ccc(C)cc1C (stereo unspecified)	i	-0.6	-8.8	14.8	0.647	1.2	-67.5
O=C(OCCN(CCOC(=O)c1ccncc1)S(=O)(=O)c1cccs1)c1ccncc1	·	-2.0	-2.6	2.5	0.743	-1.8	-7.0
Cc1cc(N(CN2CCCC2=O)C(=O)c2ccc(OC(C)C)cc2)no1	i	1.0	-11.2	-3.2	0.725	-0.3	5.1
Cc1c(C)c2c(OCC(=O)Nc3cccnc3)cc3c(c2oc1=O)CCC(C)(C)O3	i	54.9*	-6.7	-27.7	0.722	3.5	-123.1
COC(=O)C1(CC2CC(c3ccc(Cl)cc3)=NO2)CCN(C(=O)OC(C)(C)C)CC1 (stereo unspecified)	i	2.7	5.5	·	0.695	2.0	3.9
CCOc1ccc(S(=O)(=O)N2CCC(C(=O)Nc3ccc(C)c(S(=O)(=O)N4CCOCC4)c3)CC2)cc1	i	0.0	11.7	·	0.69	·	4.6
CCc1nnc(NC(=O)CCC(=O)Nc2ccc(OC)cc2OC)s1	i	-4.0	2.7	-21.5	0.639	0.0	2.4
CC12CC3CC(C)(C1)CC(NCc1ccncc1)(C3)C2	i	-0.6	5.0	-12.4	0.719	4.1	-1.7
Cn1c(CCCOc2ccc(Cl)cc2Cl)nnc1SCC(=O)Nc1ccc(F)c(Cl)c1	·	-3.2	-11.6	-4.9	0.717	1.0	1.3
O=C(c1ccc(OC2CCN(CCc3ccccc3)CC2)cc1)N1CCCC(CO)C1 (stereo unspecified)	i	-1.3	-15.3	-14.9	0.633	1.3	2.2
COc1ccc(OCCC(=O)N2CCOCC2)cc1	i	-5.2	-0.5	-9.8	·	-0.4	·
Cn1c(=O)n(C)c2cc(NC(=O)COc3ccc(Cl)cc3)ccc21	i	1.4	-1.1	-12.0	0.656	-2.0	-0.4
CC(C)CC(=O)Nc1c(C(=O)N2CCN(Cc3ccccc3)CC2)oc2ccccc12	i	-0.7	-6.4	-11.5	0.66	-0.3	2.5
CN(Cc1cccnc1)C(=O)Cc1ccc(NS(=O)(=O)c2cccc(C(F)(F)F)c2)cc1	i	0.8	-6.8	-0.1	0.665	-6.2	4.0
O=C(CN1C2=NCCCN2c2ccccc21)c1ccc([N+](=O)[O-])cc1	i	-2.8	0.2	-42.9	0.703	-1.1	3.8
Cc1ccccc1NC(=O)c1c([N+](=O)[O-])c(C(C)(C)C)nn1C	·	0.8	4.3	·	0.667	·	-0.6
C/C(=N\O)C(=O)OC1CC(C)CCC1C(C)C (stereo unspecified)	·	-1.4	-1.7	-4.5	·	-1.6	·
O=c1cc(-c2ccccc2)cc(-c2ccccc2)n1CCCO	i	0.0	-11.0	-10.2	0.682	0.3	4.6
COC(=O)C1(C)NC(c2ccc(O)cc2)C2C(=O)N(c3ccc4c(c3)OCCO4)C(=O)C21 (stereo unspecified)	·	4.2	-8.3	-4.5	0.719	2.9	2.5
COC(=O)C(Cc1ccc(O)cc1)NC(=O)Cn1cc(C)c(=O)[nH]c1=O (stereo unspecified)	i	0.8	0.5	·	·	·	·
COc1ccc(N2CCN(C(=O)C3CCCO3)CC2)cc1 (stereo unspecified)	·	4.4	1.4	53.6	0.739	1.1	1.2
CCc1ccc(C2N(c3ccc(OC)cc3)C(=O)C3CCCN32)cc1 (stereo unspecified)	i	-1.5	-3.1	-17.0	0.756	0.7	1.0
CCCCN(C)CCCNC(=O)c1ccc2c(c1)NC(=O)C(N1CCOCC1)S2 (stereo unspecified)	·	-2.4	8.6	-5.7	0.74	-22.0	-0.7
CCOc1ccccc1NC(=O)COc1ccc(S(=O)(=O)N2CCCC2)cc1	i	-0.7	1.0	-10.8	0.65	7.2	-0.4
COc1ccc(/C=N/S(=O)(=O)c2ccccc2)cc1OC	i	-0.8	-4.8	-6.6	·	5.5	·
COc1ccc(CCNC(=O)CC2SC(=NCc3ccccc3)NC2=O)cc1 (stereo unspecified)	i	-4.5	-5.6	0.4	0.68	6.8	2.1
COc1ccc(OCCCC(=O)OC(C)C(=O)Nc2ccccc2[N+](=O)[O-])cc1 (stereo unspecified)	i	3.2	-10.0	-2.5	0.68	3.7	3.6
COC(=O)c1sccc1S(=O)(=O)Nc1ccc(S(N)(=O)=O)cc1	i	-3.2	-3.3	·	0.614	3.7	3.4

Additional records follow.
mol	FGF22 binding	HNF4A DNA FP	Beta2AR agonist	ALR H2O2 inh	E coli growth	LANA-H2B inh	UCH37 DUB inh
CN(C(=O)COC(=O)c1cc(=O)[nH]c2ccccc12)C1CCCCC1	i	1.7	-5.1	·	0.673	·	-26.5
Fc1ccc(-c2ccnc3nc(N4CCOCC4)nn23)cc1	·	-0.1	-8.5	·	0.717	4.1	-307.3
COc1ccccc1C(=O)Nc1c2c(nn1-c1ccc(Cl)cc1)CS(=O)(=O)C2	i	-1.9	4.8	6.9	0.715	-3.5	-5.6
COc1ccc(CC(=O)N2CCNC2=O)cc1	·	-0.4	-6.7	4.2	0.671	0.5	4.1
O=C(CSc1nc(-c2ccco2)cc(C(F)(F)F)n1)N1CCN(Cc2ccccc2)CC1	i	7.7	-24.1	-6.4	0.762	-4.1	6.7
O=c1[nH]c(C(Cl)Cl)nc2sc3c(c12)CCN(Cc1ccccc1)C3	i	-17.9	14.4	10.7	0.615	2.4	-26.5
O=C(CC1CC2CCC1C2)OCC(=O)c1c[nH]c2ccccc12 (stereo unspecified)	·	1.9	-8.3	-3.6	0.689	1.3	3.3
Cc1ccc(C(=O)NCC(c2ccco2)N2CCc3ccccc32)cc1 (stereo unspecified)	i	2.0	-4.6	77.0*	0.704	-3.5	-0.7
CCOc1ccc(C2NC(=O)C(C#N)=C(S)N2c2cccc(C)c2)cc1OC (stereo unspecified)	i	4.1	-0.1	25.7	0.598	-4.1	5.6
O=C(Cn1c(COc2ccccc2)nc2ccccc21)Nc1cccc(Cl)c1	·	-0.5	0.2	-4.0	0.754	-1.7	1.1
O=C(CSc1nnnn1C1CCCC1)N1CCN(C(=O)c2ccco2)CC1	·	-2.2	-16.8	-1.8	0.723	0.6	1.7
CC1CC(C)CN(c2ncc3c(n2)CC(c2ccccc2)CC3=O)C1 (stereo unspecified)	·	0.8	30.3	-1.7	0.78	-3.8	-0.3
CN(CC(=O)Nc1ccc2c(c1)OCCO2)S(=O)(=O)c1ccc(F)cc1	i	3.6	3.6	-4.4	0.704	5.4	3.5
CC(=O)Nc1cccc(-c2csc(Nc3cccc(C)n3)n2)c1	i	5.2	22.7	-4.7	0.708	-1.0	0.8
O=C(CCc1nnc2ccc(NCc3ccccc3)nn12)NCC1CCN(C2CCCC2)C1 (stereo unspecified)	i	-0.9	-5.4	-6.8	0.739	3.0	-4.2
O=C(Nc1cccc(-c2nnn(CC(=O)N3CCc4ccccc4C3)n2)c1)C1CCC1	i	-0.2	-19.0	3.2	0.669	-0.8	4.0
CCOc1ccc(OCC)c(NC(=O)C2CCCN(c3ncccn3)C2)c1 (stereo unspecified)	·	1.3	-2.1	-3.1	0.68	-0.4	-0.4
COc1cccc(OC)c1C(=O)Nn1c(-c2cccs2)nc2ccccc2c1=O	i	-0.6	-0.3	-4.6	0.685	-0.4	6.5
CCC1CCCCN1CCCNC(=O)c1cn(C)c2ccc(S(=O)(=O)N3CCOCC3)cc2c1=O (stereo unspecified)	i	0.9	-6.0	2.0	0.675	-3.8	5.2
CC1(C)CC(=O)C=C(NNC(=O)C2CCCCC2)C1	·	0.9	-0.9	29.3	0.711	-2.0	2.4

Some of these compounds in order of the ALR H2O2 inh value, lowest first.
molecule	Beta2AR agonist	ALR H2O2 inh	LANA-H2B inh	UCH37 DUB inh
O=C(CC1CC2CCC1C2)OCC(=O)c1c[nH]c2ccccc12 (stereo unspecified)	-8.3	-3.6	1.3	3.3
COc1ccccc1C(=O)Nc1c2c(nn1-c1ccc(Cl)cc1)CS(=O)(=O)C2	4.8	6.9	-3.5	-5.6
O=c1[nH]c(C(Cl)Cl)nc2sc3c(c12)CCN(Cc1ccccc1)C3	14.4	10.7	2.4	-26.5

Screens deposited in PubChem by several laboratories.
